Assay outcomes (PubChem)
Six1-Eya2 blk: Six1/Eya2 interaction inhibition. 360,000 compounds, 0.56% hits. AID 651725. activity change, % (concentration not given with the values). AlphaScreen GST-Six1/His-Eya2 binding, biochemical; active compounds read low; control for the full effect not named in the record. Q15475+O00167; in the data active = activity change below about -65%; inconclusive = about -30% to -65%; inactive = above about -30%; note: % is set by controls: 0 for no effect and ±100 for the full control effect
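Homogeneous AlphaScreen proximity assay pairing GST-Six1 with His-tagged Eya2 (added as 5X mix: 250 nM and 500 nM) in 50 mM Tris pH 8.0, 300 mM NaCl, 1 mM TCEP. Glutathione donor and nickel acceptor beads; 1 h, 37 °C, dark.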
TRPML1 ag: human mucolipin-1 channel agonism | TRPML1-expressing cells, Ca2+ dye fluorescence, FDSS; host cell line not named in the record; reference of the full effect not given here | activation, % (test concentration not listed) | AID 624414 | 410,000 compounds, 0.12% hits; in the data active = activation above about 50%; inconclusive = about 30% to 50%; inactive = below about 30%; note: 0% is about no effect; the text of the record puts the active cut at 80%
Target sequence (Q9GZU1 whole entry, looked up): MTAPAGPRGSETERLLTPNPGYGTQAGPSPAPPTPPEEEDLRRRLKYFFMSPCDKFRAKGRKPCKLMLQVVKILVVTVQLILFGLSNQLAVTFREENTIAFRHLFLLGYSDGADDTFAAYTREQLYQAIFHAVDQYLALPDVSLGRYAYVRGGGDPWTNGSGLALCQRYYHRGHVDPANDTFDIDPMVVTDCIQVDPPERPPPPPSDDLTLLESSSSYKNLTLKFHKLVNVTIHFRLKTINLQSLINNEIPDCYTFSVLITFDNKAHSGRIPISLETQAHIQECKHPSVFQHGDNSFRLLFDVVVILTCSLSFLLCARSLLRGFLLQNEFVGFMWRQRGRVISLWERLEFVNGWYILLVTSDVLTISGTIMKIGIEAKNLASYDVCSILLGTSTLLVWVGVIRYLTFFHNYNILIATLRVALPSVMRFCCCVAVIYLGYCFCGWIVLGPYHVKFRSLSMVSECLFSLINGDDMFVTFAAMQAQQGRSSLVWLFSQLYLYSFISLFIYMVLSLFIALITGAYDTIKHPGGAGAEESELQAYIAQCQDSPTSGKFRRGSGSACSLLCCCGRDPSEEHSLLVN
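Agonist activity was taken from a 110 s kinetic Ca2+ dye read on the FDSS after pinning compounds onto TRPML1-DL cells. The cells were seeded at 1,500/well with Tet inducer, incubated about 16 h, then dye-loaded at room temperature.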
D2 PAM: potentiates the human D2 dopamine receptor allosterically | P14416 | DiscoveRx D2 beta-arrestin cells, luminescence, 90 min; 100% = 57 uM dopamine signal | potentiation, % (concentration not given with the values) | 360,000 compounds, 0.23% hits; active = potentiation of 50% or more; inconclusive = 30% to 50%; inactive = 30% or less;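 note: tested on top of an EC20 dose of dopamine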
Target sequence (P14416 whole entry, looked up): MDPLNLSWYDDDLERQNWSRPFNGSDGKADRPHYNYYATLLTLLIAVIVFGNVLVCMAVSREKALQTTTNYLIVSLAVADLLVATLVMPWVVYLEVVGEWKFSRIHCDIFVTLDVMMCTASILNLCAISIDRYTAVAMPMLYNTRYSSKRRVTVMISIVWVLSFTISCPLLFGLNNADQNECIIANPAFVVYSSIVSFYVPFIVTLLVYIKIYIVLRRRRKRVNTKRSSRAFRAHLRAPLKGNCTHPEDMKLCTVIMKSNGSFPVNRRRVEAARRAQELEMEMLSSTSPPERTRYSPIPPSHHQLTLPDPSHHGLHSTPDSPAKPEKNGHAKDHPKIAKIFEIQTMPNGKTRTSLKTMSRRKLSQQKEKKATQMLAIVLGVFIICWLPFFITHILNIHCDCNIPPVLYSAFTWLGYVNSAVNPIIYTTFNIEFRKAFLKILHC
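PathHunter D2 cells, attached overnight at 37 deg C, received compound in DMSO plus dopamine at EC20 (50 nM final) for 90 min at 37 deg C. Beta-arrestin recruitment was read as luminescence after 1 h with detection reagent at ambient temperature.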
PINK1 modulator: modulators of PINK1 expression; PINK1 immunofluorescence, high-content cytometry, 24 h; Potency, µM (top dose mostly 76.6 µM), inactives show at the highest dose activation (PINK1 increase), hits mostly activators; 410,000 compounds, 0.2% hits; AID 624263; active = well fitted activation curve with a large enough effect; inconclusive = small, poorly fitted or top-dose-only effect; inactive = flat fitted curve, though single readings scatter; cell line not stated here;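 note: potency is the fitted concentration of half-maximal effect; % of control where 0% means no effect; nearly all actives have a fitted effect of over 65% in size; a mitochondrial uncoupler was the plate control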
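Fluorescence from anti-PINK1 antibody, together with nuclear and cell stains, was scanned on a laser-scanning cytometer. Before staining, stable-line cells were incubated 24 hours with compounds at 5 concentrations; primary antibody 12 h at 10 degrees C.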
D2 ag: agonists of human D2 dopamine receptor (beta-arrestin). P14416. DiscoveRx PathHunter D2 beta-arrestin, luminescence, 90 min; 100% = 57 uM dopamine signal. activation, % (test concentration not listed). 360,000 compounds, 0.084% hits. AID 624465; in the data active = activation above about 40%; inconclusive = about 15% to 40%; inactive = below about 15%; note: compound concentration not given in the record; the text of the record calls up to 30% inactive
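Agonist mode: compounds alone added to overnight-plated D2 PathHunter cells for 90 min at 37 C, with 57 uM final dopamine (EC100) defining full response. Beta-arrestin recruitment detected by chemiluminescent reagent, read after 1 h at ambient temperature.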
CtBP-E1A blk: blocks the CtBP interaction with E1A. 340,000 compounds, 0.49% hits. AlphaScreen GST-E1A/His-CtBP binding, 1536-well; active compounds read low; control for the full effect not named in the record. activity change, % (no concentration beside the values); in the data active means activity change below about -65%; inconclusive means about -30% to -65%; inactive means above about -30%; note: % is set by controls: 0 for no effect and ±100 for the full control effect
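In 5 uL wells, 23 nL compound meets equimolar GST-E1A and His-CtBP (5X stock 125 nM each) for 2 h, 37 °C. Beads (5X, 50 ug/mL) then 1 h, 37 °C, dark.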
* = called active by the depositor; u = inconclusive; x = no result given; & = joins results of further samples; [ ] = remark or other dose.

SMILES	Six1-Eya2 blk	TRPML1 ag	D2 PAM	PINK1 modulator	D2 ag	CtBP-E1A blk
Cn1c(=N)n(CC(=O)c2ccc(Cl)c(Cl)c2)c2ccccc21	26	0.6	-17	5.9%	-4.0	x
Cc1nc(NC(=O)c2ccncc2)sc1C(=O)N(C)C	-7	-0.8	4	-0.2%	-5.4	-10
O=Cc1ccccc1OCCOc1ccccc1C=O	0	-0.5	19	1.9%[38.3 µM]	2.6	6
O=C(COc1ccc2ccc(=O)oc2c1)NCCc1c[nH]c2ccc(F)cc12	4	-0.1	-6	1.8%	4.7	-17
CN1C(C(=O)NCC2CC2)CC2Cn3c(nc4cc(Cl)c(Cl)cc43)C21 (stereo not drawn)	-1	-0.9	-31	0.4%	1.5	0
CC1(C(=O)NS(=O)(=O)c2cccs2)CCN1C(=O)c1ccccc1 (stereo not drawn)	0	-0.4	-7	0.0%	-3.3	0
CN(C)CCCN(C(=O)CCc1ccccc1)c1nc2ccc(Br)cc2s1	-29	0.7	-6	-1.9%	1.8	-19
O=C(c1cc(-c2ccccn2)nc2c(Cl)cccc12)N1CCN(C(=O)C2CCCO2)CC1 (stereo not drawn)	4	0.5	-7	-1.1%	1.7	-6
CS(=O)(=O)Oc1ccc(Br)cc1/C=C1/N=C(c2ccco2)OC1=O	3	0.7	0	0.7%	-0.9	8
COc1ccc(-n2nc(C(=O)Nc3ccc4c(c3)OCO4)c3ccccc3c2=O)cc1	-10	-0.2	7	-3.4%	-0.7	11
NC(=S)N/N=C/c1ccc(C23CC4CC(CC(C4)C2)C3)cc1	-2	4.3	-2	-1.9%	-4.0	-7
COc1cc(/C=N/NC(=O)c2ccncc2)ccc1OC(=O)c1ccc([N+](=O)[O-])cc1	4	1.1	u	1.0%	7.7	-1
O=C(CN1CCOCC1)N/N=C/c1c(O)ccc2ccccc12	-95*	0.1	-9	-1.7%	-1.0	-93*
COc1ccc(CNCCS(=O)(=O)NC2CCCCC2)cc1	4	-0.8	-21	0.4%	0.8	3
CN(C(=O)c1ccccc1)c1ccccc1C(=O)NCCc1ccccc1	7	0.1	-13	1.4%	-8.2	1
Nc1nonc1C(=O)OCC(=O)N1CCCCC1	10	1.8	-1	0.4%	0.6	11
CC(OC(=O)C1CC(=O)N(Cc2ccccc2)C1)C(=O)Nc1ccc(F)cc1Cl (stereo not drawn)	1	1.1	11	-1.3%	0.2	13
COc1cccc(CNC(=O)CNC(=S)N(Cc2ccccc2)Cc2ccccc2F)c1	-1	2.8	-4	6.3%	-1.1	0
O=C(COC(=O)c1ccc(F)cc1)NCC1COc2ccccc2O1 (stereo not drawn)	3	1.0	-4	1.4%	-1.4	1
COC(=O)CC(NC(=O)c1cccs1)c1ccc(OC)c(OC)c1 (stereo not drawn)	2	-0.3	-2	1.1%	-3.8	8
CN(Cc1cccc(F)c1)C(=O)CN1CCN(S(=O)(=O)c2ccc3c(c2)OCCCO3)CC1	3	-0.4	-2	-0.7%	4.1	-3
O=C1CN(S(=O)(=O)c2ccc([N+](=O)[O-])cc2)CC(=O)N1	2	0.0	7	2.7%	5.8	1
Cc1ccc(N=Nc2c(O)[nH]c(=O)[nH]c2=O)cc1S(=O)(=O)Nc1ccc(Br)cc1	u	0.4	-13	1.5%	-5.5	-24
O=C(Nc1ccc2c(c1)OCCO2)C1CCN(c2cnccn2)CC1	0	-0.7	-11	0.2%[38.3 µM]	-2.4	-4
Cc1ccc2cccc(S(=O)(=O)NC3CCS(=O)(=O)C3)c2n1 (stereo not drawn)	3	0.2	-14	-0.1%[38.3 µM]	0.1	1
Cc1ccc(CN2CCC[C@]3(N[C@H](c4ccccc4)[C@@H]4C(=O)N(Cc5ccccc5)C(=O)[C@@H]43)C2=O)cc1	18	0.3	-12	5.4%	-10	4
O=C(Nc1ccc2c(c1)OCCO2)C(CCc1ccccc1)N1CCN(C/C=C/c2ccccc2)CC1 (stereo not drawn)	-30	-0.2	-14	2.7%	-1.1	-22
Cc1ccc(C(=O)C(SC(C)(C)C)n2cncn2)cc1 (stereo not drawn)	-1	0.8	-9	-2.0%	-19	0
O=c1c2ccccc2nc(SCc2nnc(-c3ccccc3Br)o2)n1-c1ccccc1	2	1.4	0	-4.0%[38.3 µM]	2.3	2
CC1(C(=O)NS(=O)(=O)c2ccc(Cl)cc2)CCN1C(=O)Cc1ccc(-c2ccccc2)cc1 (stereo not drawn)	-5	-0.5	-4	-0.2%	-3.7	0
Cc1ccc(S(=O)(=O)NCCCN2CCOCC2)cc1C	2	-0.2	-21	0.3%	-1.5	8
NC(=O)C1CCN(C(=O)CCc2ccsc2)CC1	10	0.3	1	-0.7%	-2.4	24
CS(=O)c1ccccc1COC(=O)Nc1ccc(Cl)cc1 (stereo not drawn)	-5	-0.4	-3	1.2%	-4.4	5
CCc1cc(C(=O)Cc2nc3ccccc3s2)c(O)cc1OCC(=O)O	-11	-0.4	-6	2.6%	-4.3	0
COC(=O)CCS(=O)(=O)c1ccc(Cl)cc1	5	-0.2	-2	-3.3%[38.3 µM]	0.3	7
CSc1ccccc1-n1nnnc1SCC(=O)Nc1cc(C)ccc1C	-1	1.0	-8	-0.6%	-1.2	-1
CN1C2CCC1CC(OC(=O)c1c[nH]c3ccccc13)C2 (stereo not drawn)	4&-1	-0.1&0.5	-13&-4	u	4.1&-1.6	6&1
Cc1ccc(NS(=O)(=O)c2ccc(NC(=O)C3CC3)cc2)cc1C	1	0.0	-15	0.6%	-3.0	-9
C/C=C/c1ccc(OCC(=O)OCC2=C(C(=O)OCC)C(C)NC(=O)N2)c(OC)c1 (stereo not drawn)	23	-0.4	-3	-0.2%	-3.0	-14
COc1ccc(CC(=O)Nc2ccc(N3CCN(c4ccc(OC)cc4)CC3)c(C#N)c2)cc1	-22	-0.1	14	3.2%	2.6	-21
COc1ccccc1CNC(=S)Nc1ccc2nc(N3CCN(C)CC3)cc(C)c2c1	26	0.2	-13	0.5%	-2.7	33
CC(C)CCn1nc(C(=O)OCC(=O)NC(C)c2ccccc2)c2ccccc2c1=O (stereo not drawn)	-9	-0.2	1	3.3%	5.7	3
CCN(CC)C(=O)C1=C(C)N(Cc2ccc(C(C)(C)C)cc2)C(=O)C(CC(=O)NCCc2ccccn2)C1 (stereo not drawn)	1	x	x	-0.3%	-0.4	-9
C=CCNC(=S)N1CCC(C(=O)c2ccc(Cl)cc2)CC1	6	x	-21	0.4%	1.2	x
CCOc1ccc(N(CC(=O)N2CCN(c3ccccc3F)CC2)S(=O)(=O)c2c(C)noc2C)cc1	16	-0.1	-10	-0.5%	1.2	-11
O=CNCCCc1nc2ccccc2n1Cc1ccccc1	-4	0.4	9	-9.6%[38.3 µM]	-1.3	1
Cc1cc(C)c(NC(=O)c2c[nH]c(=S)n2-c2ccc(F)cc2)c(C)c1	4	-0.6	-16	0.3%	-5.7	x
O=C(C1=C[C@@H](c2coc3ccccc3c2=O)C[C@@H](OCCCCO)O1)N1CCOCC1	1	-0.4	-9	-0.6%	-4.1	6
COc1ccc(-c2cn[nH]c2-c2ccc(OC)cc2O)cc1	19	2.2	2	-1.4%	-2.7	-3
Cc1cccc(Nc2nc(-c3ccc4c(c3)OCCO4)cs2)c1	-7	1.4	2	11%	0.3	-2
Cn1ccnc1C(OC(=O)c1ccccc1)C(F)(F)F (stereo not drawn)	7	3.1	1	-2.5%	3.3	2
O=C(OCc1cn([C@H]2CN(C(=O)c3cccs3)[C@@H](c3ccccc3)C[C@@H]2O)nn1)c1ccccc1	-3	0.4	3	1.1%	-4.0	-2
Cc1ccc(NC(=O)C2CCN(S(=O)(=O)c3ccc(F)cc3)CC2)cc1	3	0.6	-16	0.6%	2.6	3
O=C(Oc1ccc(-c2ccccc2)cc1)N1CCCCC1	14	2.1	-12	12%	-3.3	2
CC(C)C[C@H]1CN=C(N(C)C)N1CC1CCCC1	2	1.2	-7	1.6%	-3.6	0
C#CCNC(=O)C1=C[C@H](c2ccc(C(F)(F)F)cc2)C[C@H](OCc2ccc(CO)cc2)O1	3	-0.3	-8	-1.0%	-1.3	-1
C[C@H]1CN([C@@H](C)CO)C(=O)CCCn2nncc2CO[C@@H]1CN(C)S(=O)(=O)c1ccc(Oc2ccccc2)nc1	-1	-0.3	7	-0.3%	-1.5	1
COc1ccccc1-n1c(-c2ccccc2)n[nH]c1=S	2	1.7	-7	-0.5%	4.4	-1
O=C(Cc1ccc(Cl)cc1)Nc1ccccn1	-1	1.2	-6	0.8%	-1.5	x
CCOC(=O)C1=C(C(C)=O)C(c2cccnc2)C(C#N)=C(N)O1 (stereo not drawn)	14	0.2	4	0.3%	-0.1	8
(further entries)
SMILES	Six1-Eya2 blk	TRPML1 ag	D2 PAM	PINK1 modulator	D2 ag	CtBP-E1A blk
CCc1nc2ccc(C(=O)Nc3ccc(OC)c(OC)c3)cn2c1N(CCC(C)C)CCN(C)C	-16	-0.3	-5	1.3%	4.5	-13
CSc1ccccc1OC1CCN(Cc2ccccc2)CC1	-9	0.1	-17	5.4%	-4.9	3
CCCCOc1ccc(S(=O)(=O)NC(=O)C2(C)CCN2C(=O)CCc2ccccc2)cc1 (stereo not drawn)	-13	-0.5	2	0.9%	-4.2	-9
COc1cc(OC)c(NC(=O)CC2SC(N)=NC2=O)cc1Cl (stereo not drawn)	19	-0.6	-12	1.5%	-2.6	-24
CC(=O)NC(Cc1c[nH]c2ccccc12)C(=O)OCC(=O)N1CCCCCC1 (stereo not drawn)	-1	-1.0	-8	-1.5%	-5.7	1
CCC(C(=O)NC1CCCCCC1)c1ccccc1 (stereo not drawn)	7	-0.7	-20	2.4%	-5.3	x
Cc1ccc(C(=O)CNc2cccc(Cl)c2)cc1	-9	0.7	-41	7.4%	-10	2
COc1ccc(C(c2nnnn2Cc2cccs2)N2CCN(c3ccccc3)CC2)cc1OC (stereo not drawn)	-8	-0.3	-20	1.1%	2.2	-7
CCOC(=O)C1=C2N(C)c3ccccc3N2CCC1=O	-4	1.2	6	3.6%	1.1	2

3 entries already listed, arranged by the value under Six1-Eya2 blk, lowest first:
Compound,Six1-Eya2 blk
CCCCOc1ccc(S(=O)(=O)NC(=O)C2(C)CCN2C(=O)CCc2ccccc2)cc1 (stereo not drawn),-13
CC(=O)NC(Cc1c[nH]c2ccccc12)C(=O)OCC(=O)N1CCCCCC1 (stereo not drawn),-1
COc1cc(OC)c(NC(=O)CC2SC(N)=NC2=O)cc1Cl (stereo not drawn),19

A second format for some results above:
> Cc1ccc(C(=O)CNc2cccc(Cl)c2)cc1
  Six1-Eya2 blk: -9
  TRPML1 ag: 0.7
  D2 PAM: -41
  PINK1 modulator: 7.4%
  D2 ag: -10
  CtBP-E1A blk: 2

> COc1ccc(C(c2nnnn2Cc2cccs2)N2CCN(c3ccccc3)CC2)cc1OC (stereo not drawn)
  Six1-Eya2 blk: -8
  TRPML1 ag: -0.3
  D2 PAM: -20
  PINK1 modulator: 1.1%
  D2 ag: 2.2
  CtBP-E1A blk: -7
